RE007 growth inh: less growth of the S. pombe RE007 Vpr strain. Potency, µM (top dose mostly 92.2 µM), for the others: at the top dose activity change, negative = less growth. S. pombe RE007 Vpr strain, BacTiter-Glo ATP luminescence, 24 h; control for the full effect not named in the record. 360,000 compounds, 0.21% hits; active = well fitted falling curve with a large enough effect; inconclusive = small, poorly fitted or top-dose-only effect; inactive = no such curve, though single readings can be large or run the other way;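 note: % is set by controls: 0 for no effect and ±100 for the full control effect; nearly all actives have a fitted effect of over 50% in size; the assay follows cell death caused by Vpr and the record does not say whether a fall means rescue or toxicity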
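Fission yeast RE007 carrying one integrated HIV-1 vpr copy, seeded at OD 0.01 in PMG+AL medium with 23 nL pinned compound. Grown 24 h at 30 degrees; viability read by BacTiter-Glo luminescence after 5 min.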
LASV entry inh: Lassa virus entry inhibition. Lassa virus pseudotype entry inhibition, cell reporter; control for the full effect not named in the record. Potency, µM (titrated, usually from 37.9 µM), for the others: at the top dose activity change, negative = inhibition, usual class: inhibitors. 300,000 compounds, 1.2% hits. AID 540256; active means well fitted inhibition curve with a large enough effect; inconclusive means small, poorly fitted or top-dose-only effect, or effect the other way; inactive means flat fitted curve, though single readings scatter; tested in HEK293 cells; note: % is set by controls: 0 for no effect and ±100 for the full control effect; nearly all actives have a fitted effect of over 50% in size; luciferase read-out
SARS PLP yeast: blocks SARS-CoV papain-like protease in a yeast assay; S. cerevisiae expressing SARS-CoV PLpro, growth rescue; control for the full effect not named in the record; Potency, µM (titrated, usually from 32.9 µM), without a hit: at the highest dose activity, positive = growth rescue; 330,000 compounds, 0.19% hits; AID 485353; note: 0% is about no effect; nearly all actives have a fitted effect of over 55% in size; growth read by luminescence after 48 h
MARV entry inh: Marburg virus entry inhibition | Marburg virus pseudotyped entry inhibition, cell reporter; control for the full effect not named in the record; about a third of the inactives were read at about 46 µM | Potency, µM (top dose mostly 37.8 µM), for the others: top-dose activity change, negative = inhibition, hits mostly inhibitors | 300,000 compounds, 1.8% hits; active = well fitted inhibition curve with a large enough effect; inconclusive = small, poorly fitted or top-dose-only effect, or effect the other way; inactive = flat fitted curve, though single readings scatter; tested in HEK293 cells; about a fifth of its hits are not listed in these tables; note: % is set by controls: 0 for no effect and ±100 for the full control effect; luciferase read-out
Cruzain noTriton: cruzain (T. cruzi) inhibition without detergent; 200,000 compounds, 2.3% hits; purified cruzain, Z-FR-AMC fluorescence, no detergent; Potency, µM, inactives show max response, negative = inhibition, hits mostly inhibitors; P25779; active = well fitted curve in the direction sought with a large enough effect; inconclusive = small, poorly fitted or top-dose-only effect, or another doubt; inactive = no such curve, though single readings can be large; an effect the other way counts as inactive or inconclusive;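 note: plate controls were enzyme without inhibitor for no effect and buffer without enzyme for full effect; nearly all actives have a fitted effect of over 40% in size; top concentration of the series not given in the record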
Target sequence (P25779 123-467 limits assumed): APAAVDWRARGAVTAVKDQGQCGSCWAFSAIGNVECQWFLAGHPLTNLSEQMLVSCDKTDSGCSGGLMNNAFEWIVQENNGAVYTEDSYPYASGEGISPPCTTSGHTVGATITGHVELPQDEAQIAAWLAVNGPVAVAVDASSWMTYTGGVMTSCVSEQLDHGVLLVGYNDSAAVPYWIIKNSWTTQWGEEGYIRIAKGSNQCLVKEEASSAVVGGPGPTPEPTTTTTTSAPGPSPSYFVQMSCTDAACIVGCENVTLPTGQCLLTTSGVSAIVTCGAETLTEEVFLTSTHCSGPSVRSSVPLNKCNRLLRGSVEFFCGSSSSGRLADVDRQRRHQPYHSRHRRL
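Detergent-free condition (0.00005% Triton X-100) in acetate buffer pH 5.5 with DTT. 1.5 nM enzyme and compound were pre-mixed 15 min, then 2 uM Z-FR-AMC substrate added; reaction progress from fluorescence change between first and third reads (60 s).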
StopGo reporter: lowers the luciferase signal of an FMDV 2A StopGo reporter; Potency, µM (top dose mostly 57.9 µM), inactives show top-dose signal change, negative = less light; 410,000 compounds, 1.2% hits; human cells with a luciferase reporter of 2A StopGo recoding; control for the full effect not named in the record; active = well fitted falling curve with a large enough effect; inconclusive = small, poorly fitted or top-dose-only effect; inactive = no such curve, though single readings can be large or run the other way; tested in HEK293T cells; note: % is set by controls: 0 for no effect and ±100 for the full control effect; nearly all actives have a fitted effect of over 45% in size; luciferase light after 4 h
Cruzain inh Det: blocks cruzain activity in presence of Triton detergent; purified cruzain, Z-FR-AMC fluorescence, 0.01% Triton; Potency, µM, inactives show max response, negative = inhibition, usual class: inhibitors; 200,000 compounds, 0.43% hits; AID 1478; active = well fitted curve in the direction sought with a large enough effect; inconclusive = small, poorly fitted or top-dose-only effect, or another doubt; inactive = no such curve, though single readings can be large; an effect the other way counts as inactive or inconclusive;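 note: plate controls were neutral wells for no effect and buffer without enzyme for full effect; nearly all actives have a fitted effect of over 40% in size; top concentration of the series not given in the record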
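Detergent-containing run (0.01% Triton X-100) in acetate buffer pH 5.5 with 5 mM DTT: enzyme at 1.5 nM final, 15 min compound preincubation at room temperature, then 2 uM Z-FR-AMC substrate. Activity taken as 60 s fluorescence increase at 360/450 nm.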
NS1 inh: blocks influenza NS1 protein function. S. cerevisiae slowed by influenza A NS1, growth recovery by OD600. AID 2326. Potency, µM (series often up to 46.1 µM), for inactives: at the highest dose activity, positive = more growth. 270,000 compounds, 0.4% hits; note: actives are rising curves; nearly all actives have a fitted effect of over 50% in size
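In this qHTS, NS1 from influenza A is expressed in budding yeast, where it slows growth. Cells are switched from glucose to 2% galactose medium (pH 6.0, -URA), treated with compound, and growth recovery is read at OD600.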
The depositor's hits bear a star; ? = inconclusive; nt = not tested or not shown; & = joins results of further samples; [ ] = remark or other dose. Unless noted, calls come from the whole dose curve; as a rule, active means well fitted rising curve with a large enough effect; inconclusive means small, poorly fitted or top-dose-only effect; inactive means no such curve, though single readings can be large or run the other way. Potency is the fitted concentration of half-maximal effect.

SMILES	RE007 growth inh	LASV entry inh	SARS PLP yeast	MARV entry inh	Cruzain noTriton	StopGo reporter	Cruzain inh Det	NS1 inh
CC(CN1CCCCC1)OC(=O)c1cccc(F)c1 (stereo unspecified)	-28%	?	7%	?	nt	16%	nt	-9%
O=C1CC(N(Cc2ccco2)C(=O)Nc2ccc(F)cc2)C(=O)N1c1ccc(F)cc1 (stereo unspecified)	-16%	-20%	4%	-9%	12%	6%	10%	3%
COc1ccc(C(CNC(=O)Cc2ccc(-c3ccccc3)cc2)N(C)C)cc1 (stereo unspecified)	-21%	13%	3%	11µM*	nt	-20%	nt	11%
COc1ccc(Cl)cc1NC(=O)c1nnn(CC(=O)Nc2ccc(OC)c(OC)c2)c1N	-4%	nt	6%	nt	nt	-1%	nt	-2%
COCCNC(=O)c1ccc2c(c1)N(Cc1ccc(C(F)(F)F)cc1)C(=O)c1ccccc1S2	nt	-23%[46.1 µM]	nt	?	?	?	-11%	nt
CC(C)C(C)NC(=O)COC(=O)C1CCN(S(=O)(=O)c2ccc3c(c2)OCCO3)CC1 (stereo unspecified)	8%	1%	1%	3%	nt	-6%	nt	nt
CC1=C(C(=O)Nc2ccccc2C)C(c2cccnc2)n2nc(CCCO)nc2N1 (stereo unspecified)	-25%	3%	7%	15%	-11%	-13%	0.1%	4%
O=S(=O)(Nc1ncccn1)c1ccc(NC(=S)N2CCN(Cc3ccc(F)cc3Cl)CC2)cc1	1%	-8%	-6%	-20%	nt	-11%	nt	-15%
O=C(N/N=C/c1cc(Cl)c(O)c(Cl)c1)c1cc2c(ccc3ccccc32)o1	-4%	nt	-17%	nt	nt	-3%	nt	-12%
Cc1ccc(NC(=S)NC(NC(=O)N(C)C)C(Cl)(Cl)Cl)cc1 (stereo unspecified)	7%	8%	8%	-9%	-9%	-13%	-2.9%	9%
Cc1ccc(NC(=O)C2C3C=CC4(O3)C2C(=O)N(CCCN2CCCCC2)C4C(=O)NC2CCCCC2)cc1Cl (stereo unspecified)	1%	?	6%	?	nt	-10%	nt	-7%
O=C(CN1CCN(Cc2ccc(F)cc2Cl)C1=O)NCCCN1CCOCC1	-3%	nt	?	nt	-9%	0%	-3.1%	1%
COc1ccccc1N1CCN(CCC(=O)Nc2cccc(F)c2)CC1	0%	6%[46.1 µM]	nt	nt	6%	-9%&-28%	-0.4%	nt
O=c1oc2c(CN3CCOCC3)c(O)ccc2c2c1CCC2	3%	-1%	-2%	-3%	-76%	7%	?	-2%
CC(Cn1cncn1)NC(=O)c1cc(COc2cccc(C(F)(F)F)c2)on1 (stereo unspecified)	10%	-1%	-1%	?	nt	24%	nt	6%

Next part, overlapping the part above by 5 compounds.
SMILES	RE007 growth inh	LASV entry inh	SARS PLP yeast	MARV entry inh	Cruzain noTriton	StopGo reporter	Cruzain inh Det	NS1 inh
Cc1ccc(NC(=O)C2C3C=CC4(O3)C2C(=O)N(CCCN2CCCCC2)C4C(=O)NC2CCCCC2)cc1Cl (stereo unspecified)	1%	?	6%	?	nt	-10%	nt	-7%
O=C(CN1CCN(Cc2ccc(F)cc2Cl)C1=O)NCCCN1CCOCC1	-3%	nt	?	nt	-9%	0%	-3.1%	1%
COc1ccccc1N1CCN(CCC(=O)Nc2cccc(F)c2)CC1	0%	6%[46.1 µM]	nt	nt	6%	-9%&-28%	-0.4%	nt
O=c1oc2c(CN3CCOCC3)c(O)ccc2c2c1CCC2	3%	-1%	-2%	-3%	-76%	7%	?	-2%
CC(Cn1cncn1)NC(=O)c1cc(COc2cccc(C(F)(F)F)c2)on1 (stereo unspecified)	10%	-1%	-1%	?	nt	24%	nt	6%
COCc1nnc(NC(=O)c2cc(C(=O)OC)cc([N+](=O)[O-])c2)s1	15%	?	?	?	-6%	-18%	-3.0%	5%
O=C(CSc1nc2c([nH]c3ccccc32)c(=O)n1-c1ccc(Cl)cc1)NCc1ccccc1	nt	-6%[46.1 µM]	nt	nt	5%	-21%	0.4%	nt
CCc1noc(C)c1C(=O)Nc1cc(S(=O)(=O)N2CCOCC2)ccc1OCC(F)(F)F	14%	-24%	2%	0%[46.1 µM]	nt	-12%	nt	nt
Cc1cc(N/N=C/c2ccccc2F)c2ccccc2n1	-7%	-14%[46.1 µM]	0%	-16%[46.1 µM]	nt	-18%	nt	nt
Cc1ccc(C(=O)Nc2nccs2)s1	3%	nt	-1%	nt	nt	46%[activator]	nt	-5%
CCOc1ccc(C(=O)Nc2cccc(-c3ccc4nncn4n3)c2)cc1	-10%	nt	0%	nt	nt	-15%	nt	-2%
CC1CCCCN1CCCNC(=O)c1cc(Sc2ccc(Cl)cc2)nc2ccccc12 (stereo unspecified)	nt	26%[46.1 µM]	nt	nt	-7%	-17%	-0.1%	nt
COC(=O)c1cccc(NC(=O)CCSc2ccc(Cl)cc2)c1C	-8%	-8%	1%	0%	-10%	-5%	3.6%	-9%
COC(=O)c1ccc2c(c1)N(CC(=O)Nc1ccc(OC)c(Cl)c1)C(=O)c1ccccc1S2	nt	6%[46.1 µM]	nt	nt	3%	5%	-2.0%	nt
COc1ccc(C2C=C(c3ccccc3)Nc3nc(NC(=O)/C=C/c4ccc(F)cc4)nn32)cc1 (stereo unspecified)	nt	-16%[46.1 µM]	nt	9%[46.1 µM]	-7%	-17%	-1.6%	nt
COc1cccc(C2CC(C(F)(F)F)n3ncc(C(=O)Nc4c(C)n(C)n(-c5ccccc5)c4=O)c3N2)c1 (stereo unspecified)	-4%	4%	8%	?	?	-4%	-4.7%	12%
COCCn1c(SC(C(=O)Nc2cc(C)ccc2OC)c2ccccc2)nnc1-c1ccc(Cl)cc1 (stereo unspecified)	-1%	4%	2%	-32%	-18%	0%	-5.9%	?
CCn1c(=O)n(CC)c2cc(N3CCCC3)c(NC(=O)c3cc(Cl)ccc3OC)cc21	-11%	-22%[46.1 µM]	8%	20%[46.1 µM]	nt	-29%	nt	-4%
COC(=O)C(NC(=O)CCC(=O)N[C@@H](C(=O)OC)c1ccccc1)c1ccccc1 (stereo partly specified)	6%	nt	27%	nt	nt	-9%	nt	9%
CCOCN(C(=O)Cn1cnc2cc(C)c(C)cc21)c1c(C)cccc1CC	nt	-6%[46.1 µM]	nt	?	?	-13%	-8.5%	nt
CCCCOc1cccc(C(=O)N2CCN(CCc3ccncc3)CC2)c1	nt	-23%[46.1 µM]	nt	?	4%	-5%	-0.7%	nt
CC1CC(NC(=O)Cc2ccc(Br)cc2)CC(C)(C)C1 (stereo unspecified)	8%	-12%	-3%	?	-21%	-15%	-19%	-1%
COc1cc(NC(=O)CSc2nc(=O)n(CCCN3CCOCC3)c3c2CCC3)cc(OC)c1	-1%	6%	0%	14%	nt	-8%	nt	nt
CCN(CC)c1ccc(NC(=O)Cn2nnc(-c3cccc(OC)c3OC)n2)c(C)c1	-3%	9%	-1%	-16%	-3%	-20%	-1.2%	-9%
CNC(=O)c1ccccc1NC(=O)c1ccc(C)c(S(=O)(=O)N2CCCCC2)c1	1%	0%	-8%	-26%	-3%	19%	-1.0%	-53%
COc1cc(N(C)C)c([N+](=O)[O-])cc1C(=O)NC(C)CNc1ccc([N+](=O)[O-])cc1Cl (stereo unspecified)	14%	3%	9%	-25%	?	45%[activator]	-5.3%	8%
Cc1cccc(NC(=O)CNC(=O)c2ccc3c(c2)OCO3)n1	1%	10%	-10%	-10%	nt	-2%	nt	nt
COc1ccc(NC(=O)C2CCC(CNS(=O)(=O)c3ccc(Br)s3)CC2)c(OC)c1 (stereo unspecified)	nt	20%[46.1 µM]	nt	2%[46.1 µM]	12%	-11%	-3.8%	nt
CC(C)CNC1=CC(=O)CC(c2ccco2)C1 (stereo unspecified)	9%	9%	-7%	?	9%	2%	2.0%	9%
O=C(COC(=O)C1CCN(S(=O)(=O)c2ccc3c(c2)OCCO3)CC1)NC1CCCCC1	6%	-5%	nt	20%	nt	-8%	nt	nt
Cn1c(C(=O)NCCN2CCN(Cc3ccccc3)CC2)cc2c(=O)n(C)c3ccccc3c21	-9%	nt	4%	nt	nt	0%	nt	16%&-1%
O=[N+]([O-])c1ccc(C2[C@H]3C(c4ccccc4)=NC4(CCCC4)N23)cc1 (stereo partly specified)	4%	nt	-5%	nt	-8%	?	-6.9%	2%
CCN(Cc1nc2ccccc2c(=O)[nH]1)Cc1cc(=O)oc2cc(OC)ccc12	-5%	-2%	-5%	0%	4%	0%	2.0%	8%
Cc1nc2scc(-c3ccc(Cl)cc3)c2c(=O)o1	-2%	-20%[14.3 µM]	-4%	22%	?	-15%	-2.6%	-47%
COc1ccc(N2C(=O)C(CC(=O)Nc3ccccc3)N(Cc3ccccn3)C2=S)cc1 (stereo unspecified)	1%	?	-3%	14%	nt	-6%	nt	nt
CCOCCCNC(=S)N1CCCN(c2nc3cc(C)c(C)cc3cc2C#N)CC1	8%	nt	0%	nt	nt	-18%	nt	-75%
C/C(CC(=O)Nc1cccc(F)c1)=N\NC(=O)C(=O)NC1CCCCC1	-14%	3%	5%	-19%	-10%	3%	-0.9%	6%

Retrieved by compound from above (4):
SMILES	RE007 growth inh	LASV entry inh	SARS PLP yeast	MARV entry inh	Cruzain noTriton	StopGo reporter	Cruzain inh Det	NS1 inh
COc1ccc(N2C(=O)C(CC(=O)Nc3ccccc3)N(Cc3ccccn3)C2=S)cc1 (stereo unspecified)	1%	?	-3%	14%	nt	-6%	nt	nt
Cc1nc2scc(-c3ccc(Cl)cc3)c2c(=O)o1	-2%	-20%[14.3 µM]	-4%	22%	?	-15%	-2.6%	-47%
O=C(COC(=O)C1CCN(S(=O)(=O)c2ccc3c(c2)OCCO3)CC1)NC1CCCCC1	6%	-5%	nt	20%	nt	-8%	nt	nt
CCN(Cc1nc2ccccc2c(=O)[nH]1)Cc1cc(=O)oc2cc(OC)ccc12	-5%	-2%	-5%	0%	4%	0%	2.0%	8%

Compounds were not picked by outcome; overall some 4.7% were active at least once.
